# Screens as filed in PubChem.
# Yeast UUG start = yeast start codon fidelity modulation; S. cerevisiae UUG-firefly luciferase reporter, luminescence/redox ratio; activity score, % at 18.7 µM; actives 0.13% (n = 350,000);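 active means replicate mean at a twofold rise or more, about +100% in these data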;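 further: firefly luciferase made from a UUG start codon reports start codon fidelity; reporter light over untreated wells divided by growth signal over untreated wells; some hits fall short of that in this replicate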
# HIV Env fusion = inhibitors of HIV Env-mediated cell fusion. HeLa-JRFL Env/CEM21 cell fusion, luciferase. inhibition, % at 12.3 µM. actives 1.1% (n = 360,000). AID 651610;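 active means mean replicate inhibition score of at least 50 and every replicate individually at or above 50; inconclusive means only one of the two criteria met; inactive means mean below 50 and not all replicates reaching 50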;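 further: 0% = plate neutral controls and 100% = maraviroc near 300 nM; one replicate is shown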
# Numbers without * were called inactive; ? = inconclusive; [ ] = dose if it differs, or a comment. Only part of the results is shown. The share of hits here may be higher or lower than overall.
nr	smiles	Yeast UUG start	HIV Env fusion
1	Cc1noc(C)c1S(=O)(=O)N(C)C[C@@H]1Oc2ccc(NC(=O)Cc3cn(C)c4ccccc34)cc2CC(=O)N([C@H](C)CO)C[C@@H]1C	-6	?
2	C[C@@H]1CN([C@@H](C)CO)C(=O)c2cc(-c3ccncc3)cnc2O[C@@H]1CN(C)C(=O)Cc1ccccn1	-17	-14[16.7 µM]
3	COCC#Cc1cnc2c(c1)C(=O)N([C@@H](C)CO)C[C@@H](C)[C@H](CN(C)Cc1ccc(F)cc1)O2	-5	4[16.7 µM]
4	Cc1noc(C)c1NC(=O)N(C)C[C@H]1Oc2ccc(NS(=O)(=O)c3c(C)noc3C)cc2C(=O)N([C@H](C)CO)C[C@H]1C	4	-2[16.7 µM]
5	C[C@H](CO)N1C[C@H](C)[C@H](CN(C)S(C)(=O)=O)OCCCC[C@H](C)Oc2ccc(NS(=O)(=O)c3ccc(F)cc3)cc2C1=O	-9	21[16.7 µM]
6	C[C@H](CO)N1C[C@H](C)[C@H](CN(C)Cc2cccnc2)Oc2ncc(-c3ccc(F)cc3)cc2C1=O	-17	6[16.7 µM]
7	C[C@@H]1CN([C@H](C)CO)S(=O)(=O)c2ccc(-c3ccccc3)cc2O[C@H]1CN(C)C(=O)CN(C)C	1	-58[16.7 µM]
8	C[C@@H]1CN([C@@H](C)CO)S(=O)(=O)c2ccc(C3=CCCCC3)cc2O[C@@H]1CN(C)Cc1cccnc1	-10	-4[16.7 µM]
9	Cc1ccc(S(=O)(=O)N[C@@H]2C=C[C@H](CC(=O)NCCCN(C)C)O[C@@H]2CO)cc1	-10	-20[16.7 µM]
10	Cc1noc(C)c1S(=O)(=O)N(C)C[C@@H]1Oc2ccc(NC(=O)Cc3cn(C)c4ccccc34)cc2CC(=O)N([C@@H](C)CO)C[C@H]1C	-7	-8[16.7 µM]
11	C[C@@H]1CN([C@H](C)CO)C(=O)c2cc(NC(=O)Cc3ccccc3)ccc2O[C@@H](C)CCCCO[C@H]1CN(C)S(=O)(=O)c1ccc(F)cc1	24	6[16.7 µM]
12	CCC(=O)N(C)C[C@@H]1Oc2ncc(-c3ccc(C(=O)N(C)C)cc3)cc2C(=O)N([C@H](C)CO)C[C@H]1C	8	2[16.7 µM]
13	COc1ccc(S(=O)(=O)Nc2ccc3c(c2)C(=O)N([C@@H](C)CO)C[C@H](C)[C@@H](CN(C)Cc2ccc(C(=O)Nc4ccccc4N)cc2)O3)cc1	-3	-4[16.7 µM]
14	CCCNC(=O)N(C)C[C@@H]1Oc2cc(-c3ccccc3F)ccc2S(=O)(=O)N([C@@H](C)CO)C[C@H]1C	15	12[16.7 µM]
15	C[C@@H]1CCCCO[C@@H](CN(C)S(=O)(=O)c2ccc(Cl)cc2)[C@@H](C)CN([C@H](C)CO)C(=O)c2cc(NS(=O)(=O)c3cn(C)cn3)ccc2O1	18	-8[16.7 µM]
16	CS(=O)(=O)Nc1ccc2c(c1)[C@@H]1C[C@@H](CC(=O)NCc3cccc(F)c3)O[C@@H](CO)[C@@H]1O2	-10	6[16.7 µM]
17	O=C(C[C@@H]1C[C@@H]2c3cc(NC(=O)C4CCC4)ccc3O[C@@H]2[C@H](CO)O1)NC1CCCCC1	-13	8[16.7 µM]
18	COc1ccc(CN(C)C[C@H]2Oc3ccc(NC(=O)Nc4ccc5c(c4)OCO5)cc3CC(=O)N([C@H](C)CO)C[C@H]2C)cc1	7	11[16.7 µM]
19	CNC(=O)C[C@@H]1CC[C@H]2[C@H](COc3ccc(NC(=O)c4ccc5c(c4)OCO5)cc3C(=O)N2C)O1	7	-5[16.7 µM]
20	CC(C)CC#Cc1ccc2c(c1)O[C@@H](CN(C)S(=O)(=O)c1cccc(F)c1)[C@@H](C)CN([C@H](C)CO)S2(=O)=O	1	68*[16.7 µM]
21	CNC[C@H]1Oc2ccc(NS(=O)(=O)c3cn(C)cn3)cc2C(=O)N([C@H](C)CO)C[C@H]1C	-22	-8[16.7 µM]
22	C[C@H](O)C#Cc1ccc2c(c1)O[C@@H](CN(C)C(=O)C1CCCCC1)[C@H](C)CN([C@@H](C)CO)S2(=O)=O	6	0[16.7 µM]
23	CCCNC(=O)N(C)C[C@@H]1Oc2ncc(C3=CCCCC3)cc2C(=O)N([C@H](C)CO)C[C@H]1C	8	-11[16.7 µM]
24	COc1ccc(NC(=O)N[C@@H]2CC[C@H](CCNC(=O)CN3CCOCC3)O[C@H]2CO)cc1	0	10[16.7 µM]
25	C[C@H](CO)N1C[C@H](C)[C@@H](CN(C)Cc2ccccn2)Oc2cc(C#C[C@@H](C)O)ccc2S1(=O)=O	-10	7[16.7 µM]
26	C[C@H]1CN([C@@H](C)CO)C(=O)Cc2cc(NC(=O)Nc3ccccc3)ccc2O[C@@H]1CN(C)Cc1ccc(Cl)c(Cl)c1	9	-3[16.7 µM]
27	C[C@@H]1CN([C@H](C)CO)C(=O)Cc2cc(NC(=O)CCCCCC(=O)Nc3ccccc3N)ccc2O[C@@H]1CN(C)CC1CC1	-6	7[16.7 µM]
28	COc1ccc(S(=O)(=O)Nc2ccc3c(c2)C(=O)N([C@H](C)CO)C[C@H](C)[C@H](CN(C)C(=O)Nc2cccc4ccccc24)OCCCC[C@H](C)O3)cc1	5	14[16.7 µM]
29	C[C@H](CO)N1C[C@H](C)[C@@H](CN(C)Cc2ccc(C(=O)O)cc2)OCCCC[C@H](C)Oc2ccc(NC(=O)NC3CCCCC3)cc2C1=O	4	0[16.7 µM]
30	C[C@H](CO)N1C[C@H](C)[C@H](CN(C)S(=O)(=O)c2ccc(F)cc2)Oc2ncc(C#CC(C)(C)O)cc2C1=O	4	5[16.7 µM]

# Gathered by group, those above containing a Cl atom
nr	smiles	Yeast UUG start	HIV Env fusion
15	C[C@@H]1CCCCO[C@@H](CN(C)S(=O)(=O)c2ccc(Cl)cc2)[C@@H](C)CN([C@H](C)CO)C(=O)c2cc(NS(=O)(=O)c3cn(C)cn3)ccc2O1	18	-8[16.7 µM]
26	C[C@H]1CN([C@@H](C)CO)C(=O)Cc2cc(NC(=O)Nc3ccccc3)ccc2O[C@@H]1CN(C)Cc1ccc(Cl)c(Cl)c1	9	-3[16.7 µM]

# Following part
nr	smiles	Yeast UUG start	HIV Env fusion
31	Cc1noc(C)c1S(=O)(=O)Nc1ccc2c(c1)C(=O)N([C@H](C)CO)C[C@@H](C)[C@H](CN(C)S(=O)(=O)c1ccccc1)OCCCC[C@@H](C)O2	20	-51[16.7 µM]
32	C[C@H]1CCCCO[C@@H](CN(C)C(=O)CCCN(C)C)[C@@H](C)CN([C@@H](C)CO)C(=O)c2cc(NS(=O)(=O)c3ccc(F)cc3)ccc2O1	18	-8[16.7 µM]
33	C[C@@H]1CN([C@@H](C)CO)C(=O)c2cc(NS(=O)(=O)c3cccs3)ccc2O[C@H]1CN(C)S(=O)(=O)c1ccccc1	2	12[16.7 µM]
34	Cc1noc(C)c1S(=O)(=O)Nc1ccc2c(c1)C(=O)N([C@@H](C)CO)C[C@H](C)[C@H](CN(C)Cc1ccncc1)O2	1	-18[16.7 µM]
35	C[C@H]1CN([C@@H](C)CO)C(=O)CCCn2nncc2CO[C@H]1CN(C)Cc1cccc2c1OCCCO2	-2	-26[16.7 µM]
36	C[C@@H]1CN([C@H](C)CO)C(=O)c2cccc(NC(=O)C3CC3)c2O[C@@H]1CN(C)S(C)(=O)=O	-6	14[16.7 µM]
37	C[C@@H]1CN([C@@H](C)CO)S(=O)(=O)c2ccc(C#CC3CC3)cc2O[C@@H]1CN(C)C(=O)c1ccccc1	3	13[16.7 µM]
38	COc1ccc(NC(=O)N(C)C[C@H]2Oc3ccc(NC(=O)Nc4cccc5ccccc45)cc3CC(=O)N([C@H](C)CO)C[C@H]2C)cc1	18	12[16.7 µM]
39	C[C@@H]1CN([C@H](C)CO)C(=O)c2cc(NC(=O)NC3CCCCC3)ccc2O[C@@H](C)CCCCO[C@H]1CN(C)C(=O)c1ccncc1	-1	2[16.7 µM]
40	C[C@H]1CN([C@@H](C)CO)C(=O)c2cccc(NC(=O)C3CC3)c2O[C@@H]1CN(C)Cc1ccc2c(c1)OCO2	16	-36[16.7 µM]
41	COCC(=O)Nc1ccc2c(c1)[C@@H]1C[C@H](CC(=O)NCc3ccccn3)O[C@@H](CO)[C@@H]1O2	-22	-21[16.7 µM]
42	C[C@@H]1CCCCO[C@H](CN(C)Cc2ccncc2)[C@H](C)CN([C@H](C)CO)C(=O)c2cc(NC(=O)Nc3cccc4ccccc34)ccc2O1	6	-30[16.7 µM]
43	CC(C)NC(=O)Nc1ccc2c(c1)C(=O)N([C@H](C)CO)C[C@H](C)[C@@H](CN(C)CC1CCCCC1)O2	-10	6[16.7 µM]
44	C[C@H](CO)N1C[C@H](C)[C@@H](CN(C)C(=O)NC2CCCCC2)Oc2ccc(NC(=O)Nc3ccc4c(c3)OCO4)cc2CC1=O	22	-19[16.7 µM]
45	Cc1noc(C)c1NC(=O)Nc1ccc2c(c1)CC(=O)N([C@@H](C)CO)C[C@H](C)[C@@H](CN(C)S(C)(=O)=O)O2	0	9[16.7 µM]
46	O=C(CN1CCOCC1)NCC[C@@H]1CC[C@H](NC(=O)c2ccc3c(c2)OCO3)[C@H](CO)O1	-6	9[16.7 µM]
47	Cc1noc(C)c1S(=O)(=O)Nc1ccc2c(c1)CC(=O)N([C@@H](C)CO)C[C@@H](C)[C@H](CN(C)C(=O)NC1CCCCC1)O2	0	15[16.7 µM]
48	Cc1ccc(S(=O)(=O)Nc2ccc3c(c2)C(=O)N([C@H](C)CO)C[C@H](C)[C@@H](CN(C)Cc2ccncc2)OCCCC[C@@H](C)O3)cc1	-31	22[16.7 µM]
49	C[C@@H]1CCCCO[C@@H](CN(C)C(=O)C2CCCCC2)[C@H](C)CN([C@H](C)CO)C(=O)c2cc(NC(=O)Nc3ccc(C(F)(F)F)cc3)ccc2O1	-10	33[16.7 µM]
50	CC(C)NC(=O)Nc1cccc2c1O[C@@H](CN(C)S(C)(=O)=O)[C@@H](C)CN([C@H](C)CO)C2=O	6	-9[16.7 µM]
51	Cc1cccc(S(=O)(=O)N[C@H]2CC[C@@H](CCNS(=O)(=O)c3ccccc3F)O[C@@H]2CO)c1	11	3[16.7 µM]
52	C[C@H](CO)N1C[C@H](C)[C@@H](CN(C)Cc2ccc(C(F)(F)F)cc2)Oc2c(NC(=O)NC3CCCCC3)cccc2C1=O	24	18[16.7 µM]
53	C[C@@H]1CN([C@H](C)CO)C(=O)c2cc(C#C[C@@H](C)O)cnc2O[C@H]1CN(C)Cc1ccc(-c2ccccc2)cc1	-7	-9[16.7 µM]
54	Cc1noc(C)c1NC(=O)N[C@@H]1CC[C@@H](CC(=O)N2CCCCC2)O[C@@H]1CO	-13	6[16.7 µM]
55	Cc1ccc(S(=O)(=O)N[C@@H]2CC[C@@H](CCNS(=O)(=O)Cc3ccccc3)O[C@@H]2CO)cc1	10	5[16.7 µM]
56	O=C(C[C@@H]1C[C@H]2c3cc(NC(=O)Nc4ccccc4F)ccc3O[C@H]2[C@@H](CO)O1)NC1CCCC1	22	9[16.7 µM]
57	C[C@H](CO)N1C[C@H](C)[C@H](CN(C)C(=O)Cc2ccccc2)OCCCC[C@H](C)Oc2ccc(NC(=O)Nc3ccccc3)cc2C1=O	-7	-43[16.7 µM]
58	COc1ccc(CN(C)C[C@@H]2OCCCC[C@@H](C)Oc3ccc(NS(C)(=O)=O)cc3C(=O)N([C@@H](C)CO)C[C@H]2C)cc1	-4	-18[16.7 µM]
59	CNC[C@@H]1Oc2ncc(-c3cc4ccccc4o3)cc2C(=O)N([C@H](C)CO)C[C@@H]1C	2	2[16.7 µM]
60	C[C@@H]1CN([C@H](C)CO)C(=O)c2cc(/C=C/c3ccccc3)cnc2O[C@H]1CN(C)Cc1ccncc1	-11	12[16.7 µM]

# Compound profiles, from the list above. Order of screens: Yeast UUG start, HIV Env fusion
# `C[C@@H]1CN([C@H](C)CO)C(=O)c2cc(/C=C/c3ccccc3)cnc2O[C@H]1CN(C)Cc1ccncc1` as listed: -11, 12[16.7 µM]
# `COCC(=O)Nc1ccc2c(c1)[C@@H]1C[C@H](CC(=O)NCc3ccccn3)O[C@@H](CO)[C@@H]1O2` as listed: -22, -21[16.7 µM]

# Continued.
nr	smiles	Yeast UUG start	HIV Env fusion
61	CC(C)NC(=O)N(C)C[C@H]1Oc2c(NS(=O)(=O)c3cn(C)cn3)cccc2C(=O)N([C@@H](C)CO)C[C@H]1C	-9	1[16.7 µM]
62	COC(=O)c1c2oc(c1C(=O)OC)C(=O)N[C@H](Cc1ccccc1)Cn1cc(nn1)CNC(=O)[C@H](Cc1ccccc1)NC(=O)N[C@@H](CO)CC2	216*	-11[16.7 µM]
63	C[C@H](CO)N1C[C@H](C)[C@H](CN(C)S(=O)(=O)c2ccc(F)cc2)Oc2c(NC(=O)c3nc4ccccc4s3)cccc2C1=O	-10	9[16.7 µM]
64	COc1ccc(NC(=O)N(C)C[C@@H]2OCCCC[C@@H](C)Oc3ccc(NC(=O)Nc4c(C)noc4C)cc3C(=O)N([C@H](C)CO)C[C@H]2C)cc1	-10	-16[16.7 µM]
65	Cc1noc(C)c1S(=O)(=O)Nc1cccc2c1O[C@@H](CN(C)S(=O)(=O)c1ccccc1)[C@@H](C)CN([C@@H](C)CO)C2=O	-1	23[16.7 µM]
66	O=C(CCN1CCCCC1)NCC[C@@H]1CC[C@H](NC(=O)C2CCOCC2)[C@@H](CO)O1	-9	-7[16.7 µM]
67	COc1ccc(NC(=O)Nc2ccc3c(c2)C(=O)N([C@H](C)CO)C[C@@H](C)[C@H](CN(C)S(=O)(=O)c2c(C)noc2C)OCCCC[C@H](C)O3)cc1	5	13[16.7 µM]
68	C[C@H](CO)N1C[C@H](C)[C@@H](CN(C)S(=O)(=O)c2ccc(F)cc2)OCCCC[C@H](C)Oc2ccc(NS(=O)(=O)c3cccs3)cc2C1=O	-8	0[16.7 µM]
69	CCNC(=O)C[C@H]1CC[C@H]2[C@@H](COc3ccc(NC(=O)Nc4c(C)noc4C)cc3C(=O)N2C)O1	-10	15[16.7 µM]
